AF4-AF9 inh: inhibitors of AF4 peptide binding to AF9, primary screen, biochemical, AlphaScreen, biotin-AF4 peptide, FLAG-AF9, single point. Protein AF-9 (Homo sapiens), P42568. inhibition, % at 10 µM. actives 0.47% (n = 350,000). AID 651704, 2012;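 active = every replicate reaching a set inhibition limit, whatever the replicate mean, cut at about 25% in these data; inconclusive = mean inhibition reaches that limit but some replicates miss it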;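 note: 0% = plate neutral control median and 100% = total signal loss; the record names both 10 and 1 µM as test concentration; the first replicate is given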
Target sequence (P42568 whole entry, looked up): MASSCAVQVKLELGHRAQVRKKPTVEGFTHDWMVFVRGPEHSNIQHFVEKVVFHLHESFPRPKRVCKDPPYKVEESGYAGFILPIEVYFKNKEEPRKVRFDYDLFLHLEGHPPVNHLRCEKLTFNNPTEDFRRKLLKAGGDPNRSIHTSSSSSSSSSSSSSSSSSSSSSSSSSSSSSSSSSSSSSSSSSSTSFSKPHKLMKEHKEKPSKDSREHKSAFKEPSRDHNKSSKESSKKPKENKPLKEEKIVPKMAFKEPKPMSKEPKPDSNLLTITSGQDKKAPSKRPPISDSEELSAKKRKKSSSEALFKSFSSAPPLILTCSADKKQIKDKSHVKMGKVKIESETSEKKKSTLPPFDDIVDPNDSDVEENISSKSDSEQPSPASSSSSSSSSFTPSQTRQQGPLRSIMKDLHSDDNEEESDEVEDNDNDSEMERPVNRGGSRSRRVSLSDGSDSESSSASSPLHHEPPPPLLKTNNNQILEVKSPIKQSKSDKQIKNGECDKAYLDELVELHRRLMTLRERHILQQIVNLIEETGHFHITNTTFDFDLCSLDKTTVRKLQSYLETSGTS
HNF4A DNA FP: change in binding of human HNF4A to DNA, primary screen, biochemical, fluorescence polarization, FITC-DNA | Hepatocyte nuclear factor 4-alpha (Homo sapiens), P41235 | 1 h | activity change, % at 10 µM | actives 0.3% (n = 360,000) | AID 1224865, 2016; in the data active = activity change above about 30%, passing the limit was not always enough;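 note: controls were the assay level and a saturating level of protein; the project sought stronger binding though the title names inhibitors; some compounds called inactive have numbers as strong as hits; positive values seem to mean higher polarization but the record does not say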
rRNA inh HTS: reduced GFP signal of wild-type E. coli, primary screen, bacterial rRNA inhibitor project, GFP/RFP fluorescence, OD600, single point. E. coli WT GFP vs humanized-ribosome RFP mutants, 24 h; hits give low values; DMSO median 0, no signal -100. GFP signal change (wild-type ribosome), % (no concentration beside the values). actives 1.6% (n = 350,000);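 active = significant combined selectivity score with lowered wild-type GFP, culture density cut under 30%, mutant RFP and density less affected; inactive = any of these conditions unmet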; note: one replicate is shown; some compounds called inactive have numbers as strong as hits
Vif A3G: inhibitors of Vif binding to APOBEC3G peptide, primary screen, biochemical, TR-FRET, GST-Vif 1-94, biotin-A3G peptide, dose response retest (AID 1117319); TR-FRET GST-Vif / biotin-A3G peptide binding; higher % means a stronger effect; test concentration not given here; strong numbers were not always called active; inhibition, %; hits with a dose series show IC50 in µM; actives 0.57% (n = 260,000);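 active = above the screen mean plus three standard deviations and confirmed in dose response; inconclusive = results disagree or hit not tested in dose response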;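 note: Vif residues 1-94 fused to GST binding biotinylated APOBEC3G peptide 110-148; 0% = full assay without inhibitor and 100% = GST in place of GST-Vif; retest series ran down from 100 µM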
E coli growth: E. coli growth inhibition, primary screen, OD600; Escherichia coli growth, 23 h; hits give low values; OD600 absorbance (concentration not given with the values); actives 0.21% (n = 330,000); AID 1053175, 2014;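 active = OD600 absorbance below the run mean of sample wells minus 3.6 SD, in any replicate, cut at about 0.56 in these data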;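 note: stock transfer was 300 nL into about 60 µL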
ALR H2O2 inh: inhibitors of human ALR sulfhydryl oxidase, primary screen, biochemical, H2O2 detection, HRP-luminol luminescence, single point | inhibition, % (test concentration not listed) | purified ALR, DTT oxidation | AID 485317, 2010 | actives 3.8% (n = 290,000) | FAD-linked sulfhydryl oxidase ALR (Homo sapiens), P55789;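 active = mean and each replicate at 75% or more; inconclusive = only one of the two met; inactive = neither met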;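 note: stock transfer was 7.5 nL into about 7.5 µL; 0% = neutral wells and 100% = wells with inactivated enzyme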
Target sequence (P55789 whole entry, looked up): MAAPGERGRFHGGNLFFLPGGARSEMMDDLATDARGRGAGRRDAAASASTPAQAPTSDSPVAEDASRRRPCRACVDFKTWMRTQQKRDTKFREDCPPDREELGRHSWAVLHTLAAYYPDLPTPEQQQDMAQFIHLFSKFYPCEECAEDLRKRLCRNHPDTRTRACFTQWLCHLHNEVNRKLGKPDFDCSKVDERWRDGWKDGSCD
FGF22 binding: binders of human FGF22 protein, primary screen, FGF22 synaptogenesis inhibitor project, biophysical, thermal shift, single point; recombinant FGF22 thermal shift, SYPRO orange fluorescence; percent of sucrose octasulfate shift, DMSO zero; actives 1.5% (n = 340,000); Fibroblast growth factor 22 (Homo sapiens), Q9HCT0; calls only at 9.99 µM;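 active = melting point raised past a set limit in the mean and every replicate; inconclusive = no clear call; three in four hits are not shown here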
Target sequence (Q9HCT0 whole entry, looked up): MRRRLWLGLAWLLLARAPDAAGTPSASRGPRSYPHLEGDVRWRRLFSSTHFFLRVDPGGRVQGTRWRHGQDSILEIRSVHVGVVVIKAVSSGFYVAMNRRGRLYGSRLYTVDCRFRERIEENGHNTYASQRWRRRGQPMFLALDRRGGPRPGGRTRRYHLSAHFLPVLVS
rRNA inh HTS OD600: recorded beside rRNA inh HTS, whose call it bears; OD600 change, %; measured here: OD600 growth;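 optical density of the mix in the first replicate; 0 = DMSO median and -100 = no signal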
rRNA inh HTS RFP: further read-out of rRNA inh HTS, marked with its call; RFP signal change, %; measured here: RFP humanized mutant strains;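 first replicate; 0 = DMSO median and -100 = no signal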
Numbers without * were called inactive; i = inactive; ? = inconclusive; nt = no result given; + = active, no number; & = joins results of further samples.

Order of values: AF4-AF9 inh	HNF4A DNA FP	rRNA inh HTS	rRNA inh HTS OD600	rRNA inh HTS RFP	Vif A3G	E coli growth	ALR H2O2 inh	FGF22 binding
O=C(c1ccccc1)N1CCN(c2ccc(N3CCOCC3)nn2)CC1
  -31	-2.6	10	10	-0.3	nt	0.68	0	i
Cc1onc(-c2ccccc2)c1C(=O)Nc1nncs1
  8.9	-2.5	4	8	-1.7	nt	0.61	0	i
CCOC(=O)C(=O)NNc1ccc(F)cc1
  -1.5	-2.6	13	12	-0.9	1%	0.62	99*	i
C=CCn1cnnc1SCC(=O)NCC1COc2ccccc2O1 (stereo not drawn)
  1.9	0.2	8	6	-0.9	-2%	0.63	nt	i
COc1ccccc1CN1[C@@H](CC(=O)O)c2ccccc2S1(=O)=O
  3.9	-2.1	1	6	-6.9	nt	nt	-10	i
COc1ccccc1CNC(=O)C[C@@H]1C[C@H]2c3cc(N(C)C)ccc3O[C@H]2[C@@H](CO)O1
  0.7	nt	1	0	0.6	nt	nt	nt	i
CC(C)NC(=O)N[C@@H]1CC[C@H](CCN)O[C@H]1CO
  -0.2	nt	5	10	0.3	nt	nt	nt	i
NC(=O)c1nsc(C(=O)N(CC(=O)NCc2ccccc2)c2ccc(F)cc2)c1N
  -0.5	2.4	-2	-3	2.2	nt	0.7	4	i
CO[C@@H]1CN(C)C(=O)c2cc(NC(=O)C3CCCC3)ccc2OC[C@H](C)N(CC2CC2)C[C@@H]1C
  1.8	nt	2	4	-0.9	nt	nt	nt	i
CCOc1ccc(NC(=S)NNC(=O)CC(C)O)cc1 (stereo not drawn)
  -2.6	18	4	3	-0.5	?	0.68	59	i
O=C(c1ccc(Cl)c(NC2=NC3CS(=O)(=O)CC3S2)c1)N1CCN(c2ccccc2)CC1 (stereo not drawn)
  0.4	4.0	4	-1	-5.7	nt	0.7	50	i
N=C1/C(=C\c2ccc(-c3cccc(Cl)c3)o2)C(=O)N=C2SC=C(c3ccccc3)N12
  3.3	19	9	4	-6.0	?	0.66	-9	i
CN1C(=O)NC(NS(=O)(=O)c2ccc(N)cc2)(C(F)(F)F)C1=O (stereo not drawn)
  0.1	2.6	8	10	-1.2	-2%	0.68	-14	+
CCSC1(SCC)N=C(N)C2(C#N)C(c3ccccc3)NC3=C(CCC3)C12C#N (stereo not drawn)
  nt	2.5	nt	nt	nt	?	0.81	96*	nt
COc1cc(/C=N/NC(=O)c2ccc(CN3c4cccc5cccc(c45)S3(=O)=O)cc2)cc(OC)c1O
  -1.2	3.3	4	1	-0.2	2%	nt	nt	i
CC(=O)c1sc(NC(=O)C2CCN(C(=O)c3ccc(F)cc3)CC2)nc1-c1ccccc1
  -2.2	2.2	-46	-75	-7.7	-11%	0.67	nt	i
CC1CN(C(=O)COC(=O)c2ccc(C#N)cc2)CC(C)O1 (stereo not drawn)
  -0.7	3.3	9	22	1.6	nt	nt	-3	i
S=C(NCc1ccco1)Nc1ccc(Cl)cn1
  1.7	0.5	3	-13	1.0	-3%	0.71	-30	i
COc1ccc(S(=O)(=O)N2CCN(C(=O)CCC3CCCC3)CC2)cc1
  nt	1.2	nt	nt	nt	-2%	0.74	-6	nt
Fc1ccc(-c2nc3c4ccccc4ccn3c2Cc2cccc(Cl)c2)cc1
  2.9	9.9	70	12	51	nt	nt	nt	i
Cn1c(=O)[nH]c(=O)c2c1nc(N1CCN(Cc3ccccc3)CC1)n2CCCc1ccccc1
  nt	-1.6	4	11	0.1	-3%	0.66	1	nt
Cc1ccc(OCc2nc3c4c(ncn3n2)-c2ccccc2CC42CCCC2)cc1
  nt	4.4	nt	nt	nt	nt	0.64	-14	nt
COCc1c(C(=O)N/N=C(\C)c2ccncc2)nnn1-c1nonc1N
  -0.6	-0.3	5	18	1.0	4%	nt	1	i
c1ccc(OCCCn2nnc(-c3ccncc3)n2)cc1
  nt	19	nt	nt	nt	-2%	0.65	2	nt
CCCCC(=O)NC(=S)NNC(=O)CCc1ccccc1
  6.4	0.4	-14	-11	0.7	-8%	0.68	51	i
O=C(Nc1ccccc1C(=O)NCCN1CCOCC1)c1cccc([N+](=O)[O-])c1
  0.2	2.1	5	8	-3.8	-3%	0.72	-3	i
CC(OC(=O)c1cccnc1Cl)C(=O)NC1CCCCC1 (stereo not drawn)
  -4.8	3.6	2	8	-3.9	-9%	nt	nt	i
O=C(CCc1ccccc1)N[C@@H]1c2ccccc2CC[C@H]1OCc1ccccc1
  -17	-0.9	-4	15	-7.4	-1%	0.68	nt	i
CC(=O)Nc1ccc(S(=O)(=O)N2CCN(Cc3nc4sc(C)c(C)c4c(=O)[nH]3)CC2)cc1
  nt	4.4	21	15	-1.3	-4%	0.72	nt	i
Cc1ccccc1S(=O)(=O)/N=C(/Nc1nc2ccccc2s1)c1ccccc1
  -0.6	1.0	8	14	1.6	nt	0.66	51	i

An excerpt from above in order of their number in rRNA inh HTS OD600, largest number first:
| compound | AF4-AF9 inh | rRNA inh HTS | rRNA inh HTS OD600 | rRNA inh HTS RFP | Vif A3G | ALR H2O2 inh |
| --- | --- | --- | --- | --- | --- | --- |
| COCc1c(C(=O)N/N=C(\C)c2ccncc2)nnn1-c1nonc1N | -0.6 | 5 | 18 | 1.0 | 4% | 1 |
| CC(OC(=O)c1cccnc1Cl)C(=O)NC1CCCCC1 (stereo not drawn) | -4.8 | 2 | 8 | -3.9 | -9% | nt |
| CC(=O)c1sc(NC(=O)C2CCN(C(=O)c3ccc(F)cc3)CC2)nc1-c1ccccc1 | -2.2 | -46 | -75 | -7.7 | -11% | nt |

Continuation.
Order of values: AF4-AF9 inh	HNF4A DNA FP	rRNA inh HTS	rRNA inh HTS OD600	rRNA inh HTS RFP	Vif A3G	E coli growth	ALR H2O2 inh	FGF22 binding
O=[N+]([O-])c1cc([N+](=O)[O-])c(Oc2cccc(Cl)c2Cl)cc1NN1CCCCC1
  4.3	0.1	1	12	14	nt	0.71	-3	i
Nc1cccc2c(O)cccc12
  nt	2.6	-28*	-17*	-5.7*	nt	0.7	-4	i
COc1cccc(-c2cccc(-c3nc(C(=O)NCc4ccc5c(c4)OCO5)cc4c3[C@H](CCO)N(S(=O)C(C)(C)C)C4)c2)c1 (stereo partly drawn)
  15	12	-3	10	64	nt	nt	nt	i
O=C(NN1CCOCC1)c1ccc(Cl)c(Cl)c1
  -0.7	0.9	9	7	-1.5	-8%	0.7	4	i
COc1cccc(CNC(=O)CCNS(=O)(=O)c2cccc3nsnc23)c1
  -1.9	3.1	-8	-9	-10	5%	0.66	-1	i
NC(=O)C1(N2CCCCC2)CCN(C(=S)Nc2ccc(F)cc2)CC1
  -1.9	-1.8	4	6	-3.5	-7%	0.69	-10	i
C=C(C)C(=O)Nc1ccc(NC(C)C)cc1
  4.3	0.3	9	13	-0.8	3%	0.67	99*	i
COc1ccccc1C(=O)NC(=O)COC(=O)CNC(=O)c1ccccc1
  2.1	2.9	0	3	-2.8	5%	0.64	nt	i
Cc1ccc(CN(C(=O)c2sc3ccccc3c2Cl)C2CCS(=O)(=O)C2)cc1 (stereo not drawn)
  nt	0.7	nt	nt	nt	-4%	0.74	nt	nt
O=C1Cc2ccccc2C(=O)N1OCc1ccc(Cl)cc1Cl
  0.0	0.9	12	10	4.8	-1%	nt	33	i
CC(C)CCN(C(=O)Cc1ccc(Cl)c(Cl)c1)c1c(N)n(Cc2ccccc2)c(=O)[nH]c1=O
  -0.1	-3.7	11	0	0.5	8%	0.74	-4	nt
CCN(CC(=O)NCc1cccnc1)S(=O)(=O)c1ccc(OC)cc1
  -4.2	2.4	5	10	-1.6	nt	0.69	-15	i
O=C(c1cccnc1)n1nc(-c2ccco2)nc1NCc1cccs1
  -4.2	3.1	-1	6	-0.1	nt	0.69	nt	i
Cc1cc(Nc2ccc(C)c(F)c2)n2ncnc2n1
  nt	6.0	nt	nt	nt	5%	0.65	-11	nt
COc1ccc(C#Cc2ccc3c(c2)O[C@H](CN(C)C(=O)NC2CCCCC2)[C@H](C)CN([C@@H](C)CO)S3(=O)=O)cc1
  -22	nt	4	4	0.6	nt	nt	nt	i

The list goes on; it opens with the 2 that closed the last part.
Order of values: AF4-AF9 inh	HNF4A DNA FP	rRNA inh HTS	rRNA inh HTS OD600	rRNA inh HTS RFP	Vif A3G	E coli growth	ALR H2O2 inh	FGF22 binding
Cc1cc(Nc2ccc(C)c(F)c2)n2ncnc2n1
  nt	6.0	nt	nt	nt	5%	0.65	-11	nt
COc1ccc(C#Cc2ccc3c(c2)O[C@H](CN(C)C(=O)NC2CCCCC2)[C@H](C)CN([C@@H](C)CO)S3(=O)=O)cc1
  -22	nt	4	4	0.6	nt	nt	nt	i
Cc1ccc(C(=O)N2CCC3(CC2)Oc2ccc(F)cc2C(=O)C32CC(c3ccc(Cl)cc3)=NO2)s1 (stereo not drawn)
  -2.9	-3.3	17	12	-9.7	nt	0.66	0	i
O=C(O)c1ccc2ccc3ccccc3c2c1
  -2.4	-0.4	nt	nt	nt	nt	0.67	-2	i
N=c1c(C(=O)NCc2ccc(F)cc2)cc2c(=O)n3ccccc3nc2n1CCCN1CCOCC1
  nt	-0.9	nt	nt	nt	12%	0.75	-19	nt
O=S(=O)(Cc1ccccc1)N(O)c1ccccc1
  -0.3	0.3	5	8	-2.9	-7%	0.65	99*	i
COc1ccc(C2C(=O)N(C3CCCCCC3)CC(=O)N2Cc2ccccc2)cc1OC (stereo not drawn)
  nt	0.5	nt	nt	nt	2%	0.75	1	nt
O=C(C[C@H]1C/C=C\C[C@@H](NC(=O)OCC2c3ccccc3-c3ccccc32)C(=O)O[C@@H](c2ccccc2)CNC1=O)N[C@H](CO)Cc1ccccc1
  2.3	3.2	17	4	0.2	nt	nt	1	i
CC1(C)CC(NC(=O)c2cc(COc3cccc(C(F)(F)F)c3)on2)CCO1 (stereo not drawn)
  -2.2	-2.3	-20	-27	-5.7	1%	0.71	4	i
COc1cccc(NC(=O)CN(C)C(=O)c2cccnc2Sc2ccc(C)c(C)c2)c1
  2.2	-0.2	-17	-20	1.4	6%	0.7	-4	i
Cc1c(NS(=O)(=O)c2ccc(C(=O)NCc3ccc(F)cc3)cc2)c(=O)n(-c2ccccc2)n1C
  -9.5	2.5	9	6	1.5	1%	0.67	-8	i
COc1ccc(C(C)(C)C)cc1NC(=O)COC(=O)c1ncc(Cl)c(Cl)c1Cl
  -16	0.7	-1	-1	-3.9	nt	0.72	0	i
C[C@@H]1CN([C@@H](C)CO)C(=O)CCCn2nncc2CO[C@@H]1CN(C)C(=O)Nc1ccc(C(C)(C)C)cc1
  -2.1&0.4	-0.1	7&2	-1&10	0.6&-5.8	-1%	nt	nt	i
N#Cc1cnn(-c2ccccc2)c1N
  nt	-0.4	nt	nt	nt	3%	0.7	-6	nt
CC(C)CC(NC(N)=O)C(=O)OCC(=O)NC(=O)NC1CCCC1 (stereo not drawn)
  nt	-4.3	nt	nt	nt	10%	0.68	nt	nt
CCc1ccc(NC(=O)C(C)OC(=O)c2cccc(S(=O)(=O)N3CCc4ccccc4C3)c2)cc1 (stereo not drawn)
  0.0	-1.8	4	1	3.7	9%	0.77	0	i

Screens as filed in PubChem BioAssay.

The list is partial; rates above refer to the full screens.
